Anaer choline gr: inhibitors of anaerobic choline-dependent gram-negative bacterial growth. Gram-negative bacterium anaerobic choline minimal medium, absorbance growth; active compounds read low; many inactives read as strong as hits in the columns shown. calls only. 55,000 compounds, 0.2% hits;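 active means growth z-score on choline under -2 at 7 or 20 h with little or no fall on glycerol, limits in tiers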;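 further: stock transfer was 300 nL into about 50 µL; the organism is E. coli; final concentration not given here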
Anaer choline gr early: second read-out of Anaer choline gr, no call of its own (marks repeat the call); z-score; measured here: choline growth z-score, timepoint 1;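 score of optical density at 7 h as mean of two plates; lower means less growth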
* marks the source's active call; other numbers are inactive results; i = inactive; + = active, no number; & = joins results of further samples. This is a subset; the hit share may differ from the screen's.

SMILES	Anaer choline gr	Anaer choline gr early
CCNC(=O)c1c(NC(=O)c2nc(S(=O)(=O)CC)ncc2Cl)sc2c1CCCC2	i	-0.37
CN(CCc1noc(C(=O)NCc2ccc(Cl)cc2)n1)C(=O)Nc1ccccc1	i	-0.2
Cc1ccc(C)c(NC(=O)N2CCN(c3cc(N(C)C)nc(C)n3)CC2)c1	i	0.54
COc1ccc(-c2cnn3c(SCC(=O)NC(C)(C)C)cc(C)nc23)cc1OC	i	0.43
CCCCN(CC)C(=O)c1cc(NC(=O)c2ccccc2Cl)cnc1N1CCNCC1	i	0.2
Cc1ccccc1CSc1nc2c(-c3ccccc3)c[nH]c2c(=O)[nH]1	i	1.05
O=C(c1ccccc1)N1CCN(CCc2ccccn2)CC1	i	-1.32
COc1ccc(N(C(=O)c2ccccc2C)S(=O)(=O)c2ccc3c(c2)n(C)c(=O)n3C)cc1	i	1.09
CC1CCN(C(=O)CSc2nnc(-c3ccccc3)o2)CC1	i	0.8
Cc1cc(NC(=O)c2ccc3c(c2)OCCO3)cc(-c2nc3ccccc3s2)c1O	i	-0.9
O=C(c1ccc(CN2C(=O)CCn3nc(-c4cccc(Cl)c4)cc32)cc1)N1CCOCC1	i	0.36
CCCn1c(CN2CCN(CC)CC2)nc2cc(NC(=O)C3CCCCC3)ccc21	i	-0.19
O=C(O)Cn1c(C(=O)Nc2nc(-c3ccccc3Cl)cs2)cc2ccccc21	i	0.48
CC(C)N1CC(=O)c2ccccc2S1(=O)=O	i	-0.53
O=C(C1CCN(S(=O)(=O)Cc2ccc(F)cc2)CC1)N1CCCC1	i	0.44
CCN1CCN(S(=O)(=O)c2ccc(Cl)cc2)c2cccnc21	i	-0.37
N#Cc1ccc(-c2nc(Cn3ccnc3)no2)cc1	i	-0.11
CC1CS(=O)(=O)N(c2ccc(S(=O)(=O)Nc3ccc(Br)cc3)cc2)C1=O (stereo unspecified)	i	-0.63
O=C(Nc1ccccc1SCc1nnc(-c2ccccc2)o1)c1ccc(Cl)cc1	i	1.44
CCOC(=O)c1c(SCC(=O)Nc2nc3ccc(C)cc3s2)nc(=O)[nH]c1C	i	1.58
O=C(CN1c2ccc(F)cc2-c2ccccc2S1(=O)=O)NCc1ccccn1	i	-1.09
Nc1ccc(Cn2cnc(-c3nc(-c4cccc(F)c4)no3)c2)cc1	i	0.35
O=C(CCCc1nnc2c(=O)n(-c3ccc(Cl)cc3)ccn12)NCCc1c[nH]c2ccccc12	i	0.28
O=C(c1cc2cc(Br)ccc2[nH]1)N1CCN(C(=O)c2c(F)cccc2F)CC1	i	-1.16
CCN1CCN(c2nc3ncn(CC(=O)Nc4ccc(OC)c(Cl)c4)c(=O)c3s2)CC1	i	0.39

5 entries from above, with bars between the fields:
molecule | Anaer choline gr | Anaer choline gr early
N#Cc1ccc(-c2nc(Cn3ccnc3)no2)cc1 | i | -0.11
CC1CS(=O)(=O)N(c2ccc(S(=O)(=O)Nc3ccc(Br)cc3)cc2)C1=O (stereo unspecified) | i | -0.63
O=C(Nc1ccccc1SCc1nnc(-c2ccccc2)o1)c1ccc(Cl)cc1 | i | 1.44
CCOC(=O)c1c(SCC(=O)Nc2nc3ccc(C)cc3s2)nc(=O)[nH]c1C | i | 1.58
O=C(CN1c2ccc(F)cc2-c2ccccc2S1(=O)=O)NCc1ccccn1 | i | -1.09

The listing continues:
SMILES	Anaer choline gr	Anaer choline gr early
Cc1nc(Nc2ccc(NC(=O)Nc3cccc(Cl)c3)cc2)cc(N(C)C)n1	i	0.02
Cc1ccc(NC(=O)Nc2ccc(Nc3cc(N(C)C)nc(C)n3)cc2)cc1	i	2.79
O=C(c1nc(-c2ccccc2)n(-c2ccccc2)n1)N1CCOCC1	i	1.12
CS(=O)(=O)Nc1cnc(N2CCC(CCN3CCOCC3)CC2)c(C(=O)O)c1	i	-0.66
O=C(CCC(=O)N1CCc2cc(S(=O)(=O)N3CCCCC3)ccc21)N1CCCCC1	i	0.24
Cc1ccc(-n2nc(C)c3nc(CCC(=O)Nc4cccc(C)c4C)c(=O)n(C)c32)cc1	i	-0.46
CCC(=O)NCc1nc2ccccc2n1Cc1ccccc1	i	0.62
CC(=O)C1C(=O)C=C(C)OC1=O (stereo unspecified)	i	-0.26
O=C(c1ccc(F)cc1)N1CCN(Cc2noc(-c3ccccc3)n2)CC1	i	0.08
CC(C)CC(=O)NCCc1csc(-c2cccc(F)c2)n1	i	0.06
Nc1ncnc2c1ncn2[C@@H]1O[C@H](COP(=O)(O)O)[C@@H](O)[C@H]1O	i	0.75
Cc1nn(C)c(C)c1CNC(=O)NCC1CCCO1 (stereo unspecified)	i	-1.7
CCOC(=O)c1ccccc1NC(=O)N1CCc2c(sc(C)c2CC)C1c1ccccc1 (stereo unspecified)	i	1.88
COC(=O)Cn1c(=O)oc2cc(S(=O)(=O)NCCN(C)C3CCCCC3)ccc21	i	-0.87
CCCc1ccc(S(=O)(=O)NCCC2CCN(C(=O)Nc3cccc(C)c3)CC2)cc1	i	1.02
CCSc1nnc(-c2nn(C)c3c2CN(S(=O)(=O)c2ccc(F)c(Cl)c2)CC3)n1CC	i	0.58
Cc1ccc(C(=O)NCc2cc(=O)n3nc(-c4ccccc4)sc3n2)cc1	i	1.54
CC(C)CC(=O)N1CCc2[nH]cnc2C12CCCCC2	i	0.6
Cc1nc(-c2cc(S(=O)(=O)N3CCOCC3)c(C)s2)no1	i	-0.93
O=C(NCCN1CCC(n2c(=O)[nH]c3cc(Cl)ccc32)CC1)c1ccc(F)cc1	i	1.04
Cc1cccc(N2CCN(CC(O)c3ccc4c(c3)OCO4)CC2)c1 (stereo unspecified)	i	-0.73
Cc1cccc(C(=O)N2CCC(c3nc4ccccc4o3)CC2)c1	i	-0.95
Cc1cc(C(=O)NCCCn2ccnc2)no1	i	-1.01
C=CCn1c(=O)c2sc(N3CCCCC3)nc2n(CC(=O)NC2CCc3ccccc32)c1=O (stereo unspecified)	i	0.2
Cc1ccc(C)c(NS(=O)(=O)c2cc(-c3cc(C(F)(F)F)on3)sc2C)c1	i	0.52

Looked up above:
O=C(NCCN1CCC(n2c(=O)[nH]c3cc(Cl)ccc32)CC1)c1ccc(F)cc1 in Anaer choline gr early has 1.04
Cc1ccc(C(=O)NCc2cc(=O)n3nc(-c4ccccc4)sc3n2)cc1 in Anaer choline gr early has 1.54

Next part
SMILES	Anaer choline gr	Anaer choline gr early
Nc1c(-c2ccc(Cl)cc2)cnc2c(-c3ccccc3)cnn12	i	0.32
O=C(NC1CCCC1)c1cnc2sc3c(n2c1=O)CCC3	i	0.09
COc1ccc(NC(=O)c2nnc(CCCC(=O)NCCc3c[nH]c4ccc(Cl)cc34)s2)cc1	i	0.6
Oc1ccc(F)cc1-c1ccnc2cc(-c3ccc(Cl)cc3)nn12	i	-1.17
CN1CCN(CCNC(=O)c2cc3n(n2)CCCN(Cc2cccc(F)c2)C3=O)CC1	i	0.3
COc1ccc(NC(=O)c2nnc(C3CCN(C(=O)Nc4cccc(C)c4C)CC3)s2)cc1	i	-1.1
Cc1nc(N2CCN(Cc3ccc4c(c3)OCO4)CC2)[nH]c(=O)c1C	i	-0.98
CCCCCn1c(=O)c2c(nc3n2CCCCN3c2ccc(OCC)cc2)n(C)c1=O	i	-1.21
Cc1cc(C)c2c(-n3cccc3)nn(CC(=O)NCc3ccccc3Cl)c2n1	i	3.49
O=C(CCCCCn1c(=O)[nH]c2ccccc2c1=O)NCCc1c[nH]c2ccccc12	i	0.15
CSc1cc2c(cc1C(F)(F)F)N(C(=O)Nc1cccnc1)CC2	i	0.47
O=c1oc2c(CN3CCCC3)c(O)ccc2c2c1CCC2	i	-0.88
Cc1[nH]c(C)c(S(=O)(=O)NC2CCCCC2)c1-c1nnc(C2CC2)o1	i	-1.06
O=C(COc1ccc(-c2nc(-c3ccccc3)no2)cc1)NC1CCCC1	i	-0.31
CS(=O)(=O)Nc1ccc(N2CCN(Cc3ccc4c(c3)OCO4)CC2)c(C(=O)O)c1	i	0.39
CSc1cccc(CNc2ccc(Cl)nn2)c1	i	-1.08
Cc1cc(C)nc(SCCn2c(N3CCC(C)CC3)nc3c2c(=O)[nH]c(=O)n3C)n1	i	0.24
CCNC(=O)N1CCC(c2nc(C(C)C)cs2)CC1	i	0.66
O=C(NCCS(=O)(=O)N1CCc2ccccc2C1)c1ccc(S(=O)(=O)N2CCCCC2)cc1	i	-0.5
Cc1ccc2scc(N3CCCC3)c(=O)c2c1	i	-1.71
Cc1nc(N2CCOCC2)c2c(C(=O)Nc3cc(C)on3)c(C)oc2n1	i	-1.86
COC(=O)C1=CN(C)S(=O)(=O)N=C1C	i	0.71
c1ccc(CCNc2nc(-c3nnc(-c4ccccc4)o3)nc3ccccc23)cc1	i	-0.26
Cc1ccccc1NC(=O)Cn1ncn2nc3c(c2c1=O)CCCC3	i	-0.06
CCCNc1cc(C)nc2c(-c3ccc(Cl)cc3)c(C(F)(F)F)nn12	i	0.04

Random excerpt: 4 entries already listed
SMILES	Anaer choline gr	Anaer choline gr early
CSc1cccc(CNc2ccc(Cl)nn2)c1	i	-1.08
O=c1oc2c(CN3CCCC3)c(O)ccc2c2c1CCC2	i	-0.88
c1ccc(CCNc2nc(-c3nnc(-c4ccccc4)o3)nc3ccccc23)cc1	i	-0.26
COc1ccc(NC(=O)c2nnc(C3CCN(C(=O)Nc4cccc(C)c4C)CC3)s2)cc1	i	-1.1

Later entries:
SMILES	Anaer choline gr	Anaer choline gr early
COc1ccc(-c2ncc3c(=O)n(CCN(C)C)c(=O)n(C)c3n2)cc1	i	0.95
Cc1ccc2c(c1)N(CCCC(=O)N1CCN(C)CC1)C(=O)CO2	i	-0.7
Cc1cc(C2CCCN2C(=O)Cc2cccs2)on1 (stereo unspecified)	i	-0.85
Cc1csc(-c2cc(S(=O)(=O)NC3CCCC3)cn2CC(=O)N2CCCC2)n1	i	0.63
Cc1cccc(OCc2nc(C)c(C(=O)Nc3nnc(C4CC4)s3)s2)c1	i	0.56
CN(C/C=C/C#CC(C)(C)C)Cc1cccc2ccccc12	i	-0.25&0.62
CCOC(=O)c1nc(Nc2ccc(OC)cc2OC)c2c(C)c(C)n(-c3ccccc3)c2n1	i	-0.32
CCOC(=O)c1c(NC(=O)c2cc3ccccc3c(=O)s2)sc2c1CCC(C)C2 (stereo unspecified)	i	-0.81
Cc1ccc(-c2noc(C3CCCN3S(=O)(=O)c3ccc(Cl)cc3C)n2)cc1 (stereo unspecified)	i	0.96
COC(=O)c1c(NC(=O)c2snnc2C)sc2c1CCCC2	i	0.5
CCN(CC)C(=O)C1CCCN(C(=O)c2nn(C)c3c2CN(C(=O)COC)CC3)C1 (stereo unspecified)	i	0.16
COc1cc(OC)cc(C(=O)Nc2cccc(N3CCCS3(=O)=O)c2)c1	i	-1.61
CCCCn1c(SCc2nc(-c3ccc(OCC)cc3)no2)nc2cc3c(cc2c1=O)OCO3	i	-0.01
Cc1ccc(-n2nc(N3CCN(C(=O)NC(C)C)CC3)ccc2=O)cc1C	i	-0.08
CN(C)c1ncnc2c1c(-c1ccccc1)cn2-c1cccc(Cl)c1	i	0.42
CN(C)c1ccc(C(CNC(=O)c2cccc(Br)c2)N2CCc3ccccc3C2)cc1 (stereo unspecified)	i	0.68
CCS(=O)(=O)N1CCCC(C(=O)NCCCN2CCC(Cc3ccccc3)CC2)C1 (stereo unspecified)	i	0.06
CCOC(=O)c1cc(S(=O)(=O)NCCC(=O)N2CCOCC2)cn1C	i	0.48
Cc1cc(C)c(S(=O)(=O)N2CCc3cc4cc(C)ccc4nc32)c(C)c1	i	1.82
CCC(SC1=NS(=O)(=O)c2ccccc2N1)C(=O)Nc1ccccc1F (stereo unspecified)	i	-0.8
CN1CCN(CCc2ccc(Cl)c(Cl)c2)CC1	+	-3.07*
CCCCCCCCCCCC(=O)CC(=O)N[C@H]1CCOC1=O	i	0.01
Cc1ccc(NC(=O)CS(=O)(=O)c2ccc3c(c2)n(C)c(=O)n3C)cc1F	i	-1.23
Cc1ccc(-c2csc(Cc3nc(-c4ccccc4Cl)no3)n2)cc1	i	0.18
CCCCC[C@H](O)/C=C/C1=C(CCCCCCC(=O)O)C(=O)CC1	i	0.69&0.19

Other results follow.
SMILES	Anaer choline gr	Anaer choline gr early
O=C(CSc1ccc(S(=O)(=O)c2ccccc2)nn1)Nc1ccc2c(c1)OCCO2	i	1.07
O=C(COc1ccc(Cl)cc1)N1CCCN(c2ccc(=O)n(-c3ccccc3)n2)CC1	i	0.23
Cc1ccc(CNC(=O)C2CCN(c3cnc(N4CCCC4)nc3)CC2)o1	i	0.54
Cc1cc(N2CCOCC2)nc(N2CCN(C(=O)c3ccccc3Br)CC2)n1	i	0.35
CCC(C)NC(=O)C1CCN(c2ccc(-c3ccccc3)nn2)CC1 (stereo unspecified)	i	-0.15
CC(C)Oc1ccc(C(=O)NCC(c2ccccc2)c2c[nH]c3ccccc23)cc1 (stereo unspecified)	i	-0.94
Cc1ccc(S(=O)(=O)c2c(C)cc(C)n(CC(=O)NCc3ccc4c(c3)OCO4)c2=O)cc1C	i	0.36
Cc1cc(NC(=O)CCc2nc(CSc3nc(-c4ccc(F)cc4)cs3)no2)no1	i	-1.44
COc1ccc(-c2nc3sc(CCNC(=O)c4ccc(OC)c(OC)c4)c(C)n3n2)cc1	i	-0.29
O=C(NCC1CCCO1)Nc1cc(F)c2nc(N3CCOCC3)ccc2c1 (stereo unspecified)	i	-0.27
c1ccc2sc(CCCCc3nc4ccccc4s3)nc2c1	i	-0.34
Cc1oc2ncnc(OCC(=O)NCCc3ccccc3)c2c1C	i	1.09
O=C(NCc1cccc(Br)c1)c1nnc2ccc(-c3ccccc3)nn12	i	1.95
Cc1c(N(C)CS(=O)(=O)O)c(=O)n(-c2ccccc2)n1C	i	0.59
O=S(=O)(c1ccc(F)cc1)N1CCN(c2ncnc3c2nnn3-c2cccc(F)c2)CC1	i	-1.18
CCc1c(C)nc(-n2nc(C)cc2NC(=O)c2cc(C)cc(C)c2)[nH]c1=O	i	-0.56
Cn1c(=O)c(=O)[nH]c2cc(-c3noc(-c4ccc(Cl)cc4)n3)ccc21	i	-2.03
